BJeLR lethal: MLPCN primary cell-based screen for lethality selective to Ras in HRASV12 cells. BJeLR (HRASV12) viability, CellTiter-Glo ATP luminescence, 48 h; reference of the scale not given here. inhibition, % (test concentration not listed). 300,000 compounds, 0.17% hits. AID 1554, 2009;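 active means replicate mean above 50%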;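 further: 50 nL library stock added to about 25 µL; numbers are from one replicate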
Mtb hypoxia inh: PubChem AID 1159583; fluorescence inhibition, % (concentration not given with the values); 300,000 compounds, 0.1% hits; M. tuberculosis hypoxia-regulated fluorescent reporter, fluorescence;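 active means 35 to 45% if threefold the growth effect, above 45% if 1.5-fold the growth effect; inactive means the rest, general growth blockers included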;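 further: wells of about 50 µL received 100 nL stock; 0% = vehicle wells and 100% = reference inhibitor wells; whole bacteria with a GFP reporter of the hypoxia response; strong numbers were not always called active; many hits fall short of the cut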
Bead autofluor: flagged as autofluorescent in microsphere protease counterscreen | compound autofluorescence counterscreen, microsphere flow cytometry; active compounds read high | fluorescence intensity (test concentration not listed) | 360,000 compounds, 3.1% hits;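 active means at least 3 SD above the mean of all compounds, about 16000 in these data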;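 further: 100 nL of 1 mM stock went into each well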
Sa RN4220 lethal: growth inhibition of S. aureus RN4220, primary screen, OD600; 16 h; inhibition, % (concentration not given with the values); 330,000 compounds, 0.33% hits; AID 1259311, 2017;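 active means z-score of -3 or lower and OD600 up to 0.18 on both plates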;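 further: plate controls were untreated cells for no effect and reference antibiotic for full effect; stock transfer was 100 nL into about 80 µL; one replicate is shown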
PrP 5UTR inh: inhibition of PrP 5' UTR reporter expression | cell-based PrP 5' UTR mRNA reporter, plate reader | inhibition, % (no concentration beside the values) | 340,000 compounds, 0.35% hits | AID 488862, 2010;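 active means every replicate at 50% or more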;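 further: 0 = median of the neutral control wells; tested in H4 reporter cells; numbers are from one replicate; inactives centre near -14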
Sa ugtP lethal: growth inhibition of ugtP-null S. aureus, primary screen, RN4220 ugtP deletion, OD600. growth inhibition, % (no concentration beside the values). 16 h; some inactives read as strong as hits. 330,000 compounds, 0.54% hits;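 active means z-score under -3 and OD600 up to 0.15 on both plates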;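 further: plate controls were untreated wells for no effect and antibiotic for full effect; wells of about 80 µL received 100 nL stock; the first replicate is given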
Mtb hypoxia inh growth: further read-out of Mtb hypoxia inh, marked with its call; growth inhibition, %; measured here: M. tuberculosis growth (absorbance);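 0% = vehicle and 100% = reference antibiotic; read after six days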
* = called active by the depositor; nt = not tested or not shown.

SMILES	BJeLR lethal	Mtb hypoxia inh	Mtb hypoxia inh growth	Bead autofluor	Sa RN4220 lethal	PrP 5UTR inh	Sa ugtP lethal
COc1ccc(S(=O)(=O)N2CCCCCC2)cc1NC(=O)CN1C(=O)CNC1=O	nt	3	8	3911	3.7	-12	6
Cc1ccc(C(=O)NCCc2sc(C)nc2C)cc1	-18	nt	nt	10633	nt	-22	nt
COc1ccccc1NS(=O)(=O)c1ccc(NN=Cc2ccccc2OCC(=O)O)c([N+](=O)[O-])c1	nt	0	1	nt	3.0	nt	9
COc1ccc(C2CC(c3ccccc3)=NN2C(=O)COC(=O)c2nc3nccc(C)n3n2)cc1 (stereo not drawn)	-18	-3	7	4518	4.1	-22	2
O=C(COC(=O)c1n[nH]c(=O)c2ccccc12)Nc1ccccc1	nt	1	2	5013	4.2	-16	0
CC(=O)Nc1ccc(C(=O)N/N=C/c2cccnc2)cc1	1	nt	nt	2042	nt	-24	nt
CC(C)n1nnnc1SCC(=O)Nc1ccccc1N1CCOCC1	6	-6	5	4194	2.7	1	-3
Cn1c(SCC(=O)c2ccc3c(c2)OCO3)nnc1-c1ccccn1	1	18	5	3749	-5.5	-21	3
CCOc1nnc(C)c2c(C)n(-c3cccc(Cl)c3)nc12	-1	8	7	23493*	5.6	-6	-3
CCOC(=O)COn1c(=O)c(-c2ccc(OCC)cc2)[n+]([O-])c2ccccc21	-10	3	-6	3801	7.8	-36	5
COc1ccc(-c2ccc3oc(-c4ccc(OC)cc4)c(C#CC4(O)CCCCC4)c3c2)cc1	-3	nt	nt	3274	nt	-11	nt
CCCCc1c(O)cc(C)[nH]c1=O	-2	9	1	4737	2.7	-41	-1
CCSc1nc(-c2cccnc2)ccc1C#N	2	-2	-1	2285	4.6	-15	-1
CCOC(=O)c1ccc(CNC(=O)C2CCC(=O)N(Cc3cccc(OC)c3)C2)o1 (stereo not drawn)	3	12	0	5801	-1.9	-14	4
Cc1cc(C(=O)Nc2sc3c(c2C#N)CCCCC3)cs1	10	2	8	10208	4.0	-28	-7
Cc1ccc(COC(=O)c2nn(-c3ccccc3)nc2N)cc1	-17	-9	1	4059	-4.7	0	1
COc1ccc(CNC(=O)C2CCN(C(=O)c3ccccc3)CC2)cc1	3	0	5	5851	2.1	-16	3
CCCCOc1ccc(N(CC(=O)NCc2ccccc2)C(=O)c2csnn2)cc1	-6	-11	10	5771	2.6	3	5
O=C(N/C=C/c1ccc(Cl)cc1)NCc1ccc(Cl)cc1	7	nt	nt	2353	-12	-14	-16
Cc1cc(C)cc(Oc2cc(NC(=O)c3cn(C)nc3C)cc([N+](=O)[O-])c2)c1	-1	3	5	9883	3.1	nt	6

Taken from above.
Bead autofluor, Cc1ccc(C(=O)NCCc2sc(C)nc2C)cc1 reads 10633
Bead autofluor, Cn1c(SCC(=O)c2ccc3c(c2)OCO3)nnc1-c1ccccn1 reads 3749
PrP 5UTR inh, COc1ccc(-c2ccc3oc(-c4ccc(OC)cc4)c(C#CC4(O)CCCCC4)c3c2)cc1 reads -11
BJeLR lethal, CC(=O)Nc1ccc(C(=O)N/N=C/c2cccnc2)cc1 reads 1
Sa RN4220 lethal, CCCCOc1ccc(N(CC(=O)NCc2ccccc2)C(=O)c2csnn2)cc1 reads 2.6
Bead autofluor, CCSc1nc(-c2cccnc2)ccc1C#N reads 2285

Additional entries.
SMILES	BJeLR lethal	Mtb hypoxia inh	Mtb hypoxia inh growth	Bead autofluor	Sa RN4220 lethal	PrP 5UTR inh	Sa ugtP lethal
O=[N+]([O-])c1ccc(NS(=O)(=O)c2cccc3cccnc23)cc1	-1	-4	4	3155	2.5	-9	3
CN(C)CCN=Cc1c(O)n(Cc2ccccc2)c(=O)c2ccccc12	-23	9	-3	4242	6.8	-6	2
COc1ccc(C2N(c3cccc(Cl)c3)C(=O)C3CCCN32)cc1 (stereo not drawn)	-3	nt	nt	5919	0.8	-31	7
CCCCSc1nc2sc3c(c2c(=O)[nH]1)CCC3	-5	-3	-5	8269	3.2	nt	-4
COc1cccc(CNC(=O)C(=O)N2CCC3(CC2)OCCN3S(=O)(=O)c2ccc(C)cc2)c1	1	0	-5	5104	2.4	-11	-6
Cn1c(C(=O)OC(C(=O)NCc2ccco2)c2ccncc2)cc2sccc21 (stereo not drawn)	-10	8	10	9747	4.2	-1	-1
Cc1ccc(C2=NS(=O)(=O)N(C)C(C(=O)NCc3ccccn3)=C2)cc1	13	5	4	5195	4.7	-10	-2
CCCn1c(=N)c(C(=O)NC2CCCC2)cc2c(=O)n3cccc(C)c3nc21	1	-1	-4	2415	-14	-10	-1
COc1cc(CN2CCCC(C(=O)c3sccc3C)C2)cc(OC)c1O (stereo not drawn)	13	10	4	7422	8.8	-15	-3
CC(=O)NN=Cc1cc(C(C)C)cc(C=NNC(C)=O)c1O	nt	-13	2	nt	6.4	nt	0
CC1CCN(C(=O)C2CCCN(S(C)(=O)=O)C2)CC1 (stereo not drawn)	-11	-1	14	8844	-0.8	-10	2
CC1(C)CC(n2[nH]c(=O)c3c2NC(=O)CSC3c2ccc(F)cc2)CCO1 (stereo not drawn)	-1	nt	nt	5601	-1.6	-8	2
CCOC(=O)C(CCSC)NC(=O)CN (stereo not drawn)	-5	10	2	22429*	5.8	-18	5
O=C(OCC(=O)N1CCCc2ccccc21)c1cncc(Br)c1	nt	0	8	2675	0.1	10	7
CCC/C(O)=C1\C(=O)CCCC1=NCCc1c(C)[nH]c2ccccc12	-3	-1	0	4265	3.7	-7	13
O=C(O)c1cc(-n2cccc2)ccc1N1CCOCC1	-4	-3	2	4070	4.4	nt	7
Cc1ccnn1CC(=O)NN=Cc1c[nH]c2ccccc12	nt	-7	-9	nt	1.1	nt	7
O=C(Nc1cccc2ccccc12)OCc1cncs1	3	14	10	4103	7.2	-18	4
CCN1CCCCC(=N/O)/C(=N/O)CCCC1	2	nt	nt	3542	nt	-7	nt
O=C(Cn1cnc2ccccc21)N/N=C/c1ccccc1[N+](=O)[O-]	0	nt	nt	4873	nt	-22	nt

Arranged by SMILES length (ascending): part of the list above.
SMILES	BJeLR lethal	Mtb hypoxia inh	Mtb hypoxia inh growth	Bead autofluor	Sa RN4220 lethal	PrP 5UTR inh	Sa ugtP lethal
Cc1ccnn1CC(=O)NN=Cc1c[nH]c2ccccc12	nt	-7	-9	nt	1.1	nt	7
CCOc1nnc(C)c2c(C)n(-c3cccc(Cl)c3)nc12	-1	8	7	23493*	5.6	-6	-3
CN(C)CCN=Cc1c(O)n(Cc2ccccc2)c(=O)c2ccccc12	-23	9	-3	4242	6.8	-6	2
CCCCOc1ccc(N(CC(=O)NCc2ccccc2)C(=O)c2csnn2)cc1	-6	-11	10	5771	2.6	3	5
CC1(C)CC(n2[nH]c(=O)c3c2NC(=O)CSC3c2ccc(F)cc2)CCO1 (stereo not drawn)	-1	nt	nt	5601	-1.6	-8	2
CCOC(=O)c1ccc(CNC(=O)C2CCC(=O)N(Cc3cccc(OC)c3)C2)o1 (stereo not drawn)	3	12	0	5801	-1.9	-14	4
COc1ccc(-c2ccc3oc(-c4ccc(OC)cc4)c(C#CC4(O)CCCCC4)c3c2)cc1	-3	nt	nt	3274	nt	-11	nt

(continued)
SMILES	BJeLR lethal	Mtb hypoxia inh	Mtb hypoxia inh growth	Bead autofluor	Sa RN4220 lethal	PrP 5UTR inh	Sa ugtP lethal
CCOC(=O)NC(=O)/C(C#N)=C\Nc1sccc1C(=O)OC	-13	nt	nt	4489	nt	-39	nt
C/C(CCc1ccco1)=N/NC(=O)CCC(=O)Nc1ccc(Br)cc1	-12	nt	nt	2446	nt	-5	nt
CCCCN1CC[C@H]2C=CC[C@@H](C(=O)Nc3ccc(Cl)c(C(F)(F)F)c3)[C@H]2C1=O	-8	nt	nt	3719	nt	-9	nt
COc1cc(/C=C2\CCc3ccccc3C2=O)cc(OC)c1OC	8	10	13	2278	17	-27	20
O=C(O)CCC(=O)NNC(=O)COc1ccc2ccccc2c1Br	1	13	-1	4705	5.7	6	-2
CC(C)C[C@@]12C(=O)N(c3cccc(Cl)c3)C(=O)N1C(c1ccc(Cl)cc1)C1C(=O)N(C3CCCCC3)C(=O)C12 (stereo partly drawn)	nt	2	9	nt	-1.0	nt	-19
Cc1ncsc1CCOC(=O)c1ccc(N2CCOCC2)c([N+](=O)[O-])c1	-1	7	6	4066	1.9	-18	6
CC(C)C(NC(=O)CN1C(=O)c2cccc3cccc1c23)C(C)C	-1	3	-4	nt	0.1	-3	10
CC1CC(C)CN(CC(C)(C)NS(=O)(=O)c2ccc(Cl)cc2)C1 (stereo not drawn)	0	nt	nt	4042	2.0	-3	0
C=CCc1c(C)nc(N)[nH]c1=O	-7	14	6	10338	4.9	-15	5
COc1cccc(C(=O)N2CCC(C(=O)NCc3ccc(C)cc3)CC2)c1	8	1	-3	3380	5.4	-4	5
CCOc1ccccc1N(C(=O)c1ccco1)C(C(=O)NC1CCCC1)c1cccs1 (stereo not drawn)	0	8	10	3569	8.0	-20	16
Cc1ccc(-n2nnnc2C(Cl)(Cl)c2nnnn2-c2ccc(C)cc2)cc1	1	10	-2	10718	100*	-23	100*
O=[N+]([O-])c1nn(-c2cccc(Cl)c2)n(O)c1=NCc1cccnc1	7	57*	21*	2385	19	-4	18
CCN(CCNCC(O)COCc1ccc(Cl)cc1)c1cccc(C)c1 (stereo not drawn)	2	6	5	4521	-4.9	-20	1
Cc1cc(-c2csc(N)n2)c(C)n1CCc1ccccc1	-16	-7	10	2611	9.1	-13	-15
CCn1c(-c2cc(-c3ccccc3OC)nc3ccccc23)n[nH]c1=S	-11	-5	3	2288	4.4	-14	-1
Cc1ccc(-c2cc(C(=O)NN=C/C=C/c3ccco3)c3ccccc3n2)cc1C	nt	-1	0	nt	-2.8	nt	4
Cc1ccc(C(=O)NCc2ccco2)cc1S(=O)(=O)Nc1cccc(C)c1C	2	-8	5	9987	3.6	-24	-4
CC(C)CN(CC(C)C)C(=O)CC(=O)NC(=O)c1ccc(Cl)cc1	0	5	4	2866	0.8	-18	-6
Brc1ccc(-c2csc(N=CN3CCOCC3)n2)cc1	nt	9	6	nt	3.5	nt	5
O=C(NCCCN1CCOCC1)C(=O)NCCc1ccccc1	-5	2	2	3298	3.9	-27	-1
COc1ccc(C2CC(c3ccc(Cl)cc3Cl)n3nc(N)nc3N2)cc1 (stereo not drawn)	-4	nt	nt	5140	-0.9	-23	3
CCOP(=O)(OCC)C(NC(C)=O)C(Cl)(Cl)Cl (stereo not drawn)	-11	8	3	3150	3.8	-5	11
CCOC(=O)C1=C(c2ccccc2)O/C(=C(/C(=O)OC)C(F)(F)F)S1	3	-7	6	8015	-3.6	-12	11
CC(C)c1ccc(C(=O)NNC(=O)c2ccncc2)cc1	0	-6	-6	4202	5.8	-10	0
COc1ccc(C(CNC(=O)CNC(=O)c2cccc(C)c2)N2CCCCC2)cc1 (stereo not drawn)	nt	6	2	6030	3.1	-11	9
CCCC(=O)Nc1ccc2c(c1)nc1n2CCSC1	0	2	4	4159	2.8	-35	0
Cc1c(C(=O)N2CCOCC2)cc(C(C)(C)C)n1-c1ccccc1	-5	11	0	5563	7.8	-9	9
CCOC(=O)N1CCC(N(CCN(C)C)C(=S)Nc2cccc(OC)c2)CC1	-18	10	0	4143	2.1	-3	2

A different layout for part of the listing above.
mol,BJeLR lethal,Mtb hypoxia inh,Mtb hypoxia inh growth,Bead autofluor,Sa RN4220 lethal,PrP 5UTR inh,Sa ugtP lethal
O=C(NCCCN1CCOCC1)C(=O)NCCc1ccccc1,-5,2,2,3298,3.9,-27,-1
COc1ccc(C2CC(c3ccc(Cl)cc3Cl)n3nc(N)nc3N2)cc1 (stereo not drawn),-4,nt,nt,5140,-0.9,-23,3

(cont.)
SMILES	BJeLR lethal	Mtb hypoxia inh	Mtb hypoxia inh growth	Bead autofluor	Sa RN4220 lethal	PrP 5UTR inh	Sa ugtP lethal
O=C(C1CC(=O)N(c2ccc(F)cc2)C1)N1CCCCC1 (stereo not drawn)	1	0	3	3792	2.4	-24	0
COc1cc([N+](=O)[O-])ccc1NC(=O)CSc1ccccn1	-11	8	-3	4509	-1.6	1	5
C=CCc1c(C)nc(-c2ccccc2)nc1N/N=C/c1ccccc1	5	nt	nt	2417	nt	-6	nt
Cc1nn(C2CCS(=O)(=O)C2)c(Cl)c1/C=C/C(=O)OCC(=O)Nc1ccccc1OC(F)F (stereo not drawn)	4	nt	nt	3212	nt	-10	nt
CCOC(=O)C1=NN(C(C)=O)C2(CC(=O)N(c3cccc(C)c3)C2=O)C1 (stereo not drawn)	-3	-10	-2	2502	3.1	-10	8

Source: PubChem
